WNV protease inh – inhibitors of WNV NS2B-NS3 protease, primary screen, biochemical, fluorogenic substrate; Genome polyprotein (West Nile virus), P06935; z-score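 (tested at a level between 10 and 100 µM)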; fluorogenic substrate Ex360/Em465; hits give low values; actives 0.18% (n = 65,000);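 active = z-score at -3 or under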;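 note: score is relative to mean and spread of the compound wells of a plate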
Target sequence (P06935 1371-1501 limits assumed): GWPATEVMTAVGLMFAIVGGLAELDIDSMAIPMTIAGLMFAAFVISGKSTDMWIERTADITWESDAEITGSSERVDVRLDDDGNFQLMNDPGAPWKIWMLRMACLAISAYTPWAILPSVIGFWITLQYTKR
Target sequence (P06935 1502-1679 limits assumed): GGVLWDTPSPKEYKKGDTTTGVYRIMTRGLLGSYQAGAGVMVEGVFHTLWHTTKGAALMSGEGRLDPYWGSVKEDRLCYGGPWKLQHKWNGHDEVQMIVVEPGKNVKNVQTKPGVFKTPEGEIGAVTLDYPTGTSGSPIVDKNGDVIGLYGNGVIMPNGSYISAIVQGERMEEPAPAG
MT1-MMP reporter – inhibitors of MT1-MMP promoter transcription, cell-based, luciferase reporter, luminescence (AID 618) | calls from a first round at 10 µM; hits with a dose series show EC50 in µM | MT1-MMP promoter luciferase reporter cells, luminescence | actives 0.62% (n = 87,000);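 active = over half of the reporter light lost at 10 µM or EC50 under 50 µM; inactive = the rest and hits that failed the dose series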;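 note: actives suppress MT1-MMP promoter-driven transcription so potencies describe inhibitors; HT1080 fibrosarcoma cells; overnight exposure; toxic or luciferase-blocking compounds were not removed from the actives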
Numbers without * were called inactive; i = inactive; . = no result given. Some of the compounds tested (hit frequency here may not be typical).

SMILES	WNV protease inh	MT1-MMP reporter
Cc1nc2cc(C(=O)N3CCC4(CC3)OCCO4)ccc2n1-c1cccc(F)c1	1.1	.
COC(=O)COc1cc(C)cc2oc(=O)c3c(c12)CCCC3	-0.06	.
COc1ccccc1CN1CCN(C(=O)Cc2ccccc2)CC1	0.09	.
CC(=O)c1c(O)n(C)c(=S)n(-c2ccccc2)c1=O	-0.86	.
CC1(C)COC(Nc2ccc(Cl)cc2)=N1	-0.1	.
CCOc1ccc(C2SCC(=O)Nc3c2c(=O)[nH]n3C2CCCCCC2)cc1 (stereo unspecified)	0.0035	.
Cc1cc2c(C(F)(F)F)cc(=O)oc2c2c1NCCC2	-0.21	.
CCCc1cc2c(n1Cc1ccc(C)cc1)C(C)C1CN(C(=O)c3ccccc3)C(C)(C(=O)OC)C21 (stereo unspecified)	.	i
Cc1cccc(N=Cc2c(O)n(-c3ccccc3C)c(=O)[nH]c2=O)c1	.	i
Cc1cc(C=O)c(C)n1C1CCCCC1	.	i
O=C(O)[C@H]1C[C@@H]1[C@H](NP(=O)(c1ccccc1)c1ccccc1)c1ccccc1	.	i
CN1C2CCC1CC(OC(=O)c1cc(Cl)cc(Cl)c1)C2 (stereo unspecified)	.	i
Cc1cccc(CN2CCN(CC(=O)N3CCC4(CC3)OCCO4)C2=O)c1	.	i
COC(=O)[C@@H]1C[C@@]1(C)[C@@H](NP(=O)(c1ccccc1)c1ccccc1)c1ccccc1	.	i
COc1ccc(OC(=O)N(C)C)c(CN(C)C)c1	.	i
Cc1ccsc1-c1nc(CSCC(=O)N2CCC3(CC2)OCCO3)c(C)o1	.	i
CCCN(CC#CCOc1ccc(OC)cc1)CCC	.	i
C=C(CC1(CNP(=O)(c2ccccc2)c2ccccc2)CC1)c1ccccc1	.	i
O=P(c1ccccc1)(c1ccccc1)N1CC2(CC2)CC(O)(c2ccccc2)C1 (stereo unspecified)	.	i
c1ccc2c(CNC3CCCCC3)c[nH]c2c1	.	i
CCOC(=O)C(O)(c1ccc(N(CC)S(=O)(=O)c2ccc(C)cc2)cc1)C(F)(F)F (stereo unspecified)	.	i

Quoted from the listing for reference:
SMILES	WNV protease inh	MT1-MMP reporter
CCOc1ccc(C2SCC(=O)Nc3c2c(=O)[nH]n3C2CCCCCC2)cc1 (stereo unspecified)	0.0035	.
Cc1cc2c(C(F)(F)F)cc(=O)oc2c2c1NCCC2	-0.21	.
CCCc1cc2c(n1Cc1ccc(C)cc1)C(C)C1CN(C(=O)c3ccccc3)C(C)(C(=O)OC)C21 (stereo unspecified)	.	i
Cc1cccc(N=Cc2c(O)n(-c3ccccc3C)c(=O)[nH]c2=O)c1	.	i
Cc1cc(C=O)c(C)n1C1CCCCC1	.	i
O=C(O)[C@H]1C[C@@H]1[C@H](NP(=O)(c1ccccc1)c1ccccc1)c1ccccc1	.	i
CN1C2CCC1CC(OC(=O)c1cc(Cl)cc(Cl)c1)C2 (stereo unspecified)	.	i

One compound at a time (already shown). Values in the order: WNV protease inh | MT1-MMP reporter
Results for `C=C(CC1(CNP(=O)(c2ccccc2)c2ccccc2)CC1)c1ccccc1` → . | i
Results for `CN1C2CCC1CC(OC(=O)c1cc(Cl)cc(Cl)c1)C2` (stereo unspecified) → . | i

An excerpt of these results, with two lines to a compound.
Order of results: WNV protease inh, MT1-MMP reporter
COc1ccc(OC(=O)N(C)C)c(CN(C)C)c1
 : ., i
Cc1nc2cc(C(=O)N3CCC4(CC3)OCCO4)ccc2n1-c1cccc(F)c1
 : 1.1, .

Compound activity deposited in PubChem BioAssay by several laboratories.
